Assay outcomes from PubChem.
Vaccinia inh: blocks a specific stage of Vaccinia orthopoxvirus infection, primary screen, cell-based, single point; Vaccinia-infected cells, mCherry/Venus stage reporter fluorescence; stronger effect = lower value; some inactives read as strong as hits; 89,000 tested, 0.01% active; activity change (mCherry), % (test concentration not listed); AID 1053133, 2014;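 active = mCherry past -33% and 40 or more points under the early reporter, replicates agreeing; inconclusive = past -33% without that gap or agreement; tested in A549 cells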;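 also: scaled between vehicle wells and reference inhibitor wells; 23 nL library stock went into each well; one replicate is shown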
Vaccinia inh Venus: further read-out of Vaccinia inh, marked with its call; activity change (Venus), %; measured here: Venus reporter, other viral stage;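 negative = less Venus signal; first of two replicates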
* hit, by the source's call.

What do the screens show for `COc1ccc2c3c(n(C)c2c1)[C@H](CO)N(CC1CCCC1)CC31CN(C(C)=O)C1`?
Vaccinia inh: 5.1; Vaccinia inh Venus: 7.3

Results for C[C@H](CO)N1C[C@H](C)[C@H](CN(C)C(=O)C2CCCCC2)Oc2cc(C#CCN(C)C)ccc2S1(=O)=O ?
Vaccinia inh: 11.7; Vaccinia inh Venus: 14.6

What do the screens show for `COc1ccc(NC(=O)Nc2ccc3c(c2)CC(=O)N([C@H](C)CO)C[C@H](C)[C@@H](CN(C)C)O3)cc1`?
Vaccinia inh: 0.5; Vaccinia inh Venus: -3.9

How did CO[C@@H]1CN(C)C(=O)c2cc(NC(=O)c3ccc(Oc4ccccc4)cc3)ccc2OC[C@@H](C)N(C(C)=O)C[C@H]1C do in these assays?
Vaccinia inh: inconclusive

What do the screens show for `C[C@@H]1CCCCO[C@@H](CN(C)Cc2ccc(C(=O)O)cc2)[C@H](C)CN([C@@H](C)CO)C(=O)c2cc(NC(=O)c3ccccc3)ccc2O1`?
Vaccinia inh: 24.0; Vaccinia inh Venus: 6.1

What do the screens show for `COc1ccc(NC(=O)Nc2ccc3c(c2)C(=O)N([C@H](C)CO)C[C@@H](C)[C@H](CN(C)C(=O)Nc2ccc4c(c2)OCO4)OCCCC[C@@H](C)O3)cc1`?
Vaccinia inh: -18.8; Vaccinia inh Venus: -20.8

Results for C[C@H]1CN([C@@H](C)CO)C(=O)c2cccc(NC(=O)Nc3ccc(C(F)(F)F)cc3)c2O[C@@H]1CN(C)C ?
Vaccinia inh: -16.4; Vaccinia inh Venus: -9.4

Results for O=C(NCC[C@@H]1CC[C@@H](NC(=O)C2CCCC2)[C@H](CO)O1)Nc1ccc(Cl)cc1 ?
Vaccinia inh: -3.4; Vaccinia inh Venus: -1.9

How did C[C@@H]1CN([C@@H](C)CO)C(=O)c2cc(C3=CCCC3)cnc2O[C@@H]1CN(C)Cc1ccccc1F do in these assays?
Vaccinia inh: 1.1; Vaccinia inh Venus: -5.3

Results for C[C@@H]1CCCCO[C@@H](CN(C)S(C)(=O)=O)[C@@H](C)CN([C@@H](C)CO)C(=O)c2cc(NC(=O)CCCN(C)C)ccc2O1 ?
Vaccinia inh: 10.7; Vaccinia inh Venus: 9.4

What do the screens show for `C[C@@H]1CN([C@@H](C)CO)C(=O)c2cc(NS(=O)(=O)c3cccs3)ccc2O[C@H]1CN(C)Cc1ccccc1`?
Vaccinia inh: 0.6; Vaccinia inh Venus: -1.7

How did C[C@@H]1CN([C@@H](C)CO)C(=O)c2cccc(NC(=O)NC3CCCCC3)c2O[C@@H]1CN(C)C(=O)Nc1ccccc1 do in these assays?
Vaccinia inh: -7.7; Vaccinia inh Venus: -13.4

Filtered by structure, those above with sulfur (3)
Results for C[C@H](CO)N1C[C@H](C)[C@H](CN(C)C(=O)C2CCCCC2)Oc2cc(C#CCN(C)C)ccc2S1(=O)=O ?
Vaccinia inh: 11.7; Vaccinia inh Venus: 14.6

Results for C[C@@H]1CCCCO[C@@H](CN(C)S(C)(=O)=O)[C@@H](C)CN([C@@H](C)CO)C(=O)c2cc(NC(=O)CCCN(C)C)ccc2O1 ?
Vaccinia inh: 10.7; Vaccinia inh Venus: 9.4

What do the screens show for `C[C@@H]1CN([C@@H](C)CO)C(=O)c2cc(NS(=O)(=O)c3cccs3)ccc2O[C@H]1CN(C)Cc1ccccc1`?
Vaccinia inh: 0.6; Vaccinia inh Venus: -1.7

Back to the main list, repeating the two entries before the break.
What do the screens show for `C[C@@H]1CN([C@@H](C)CO)C(=O)c2cc(NS(=O)(=O)c3cccs3)ccc2O[C@H]1CN(C)Cc1ccccc1`?
Vaccinia inh: 0.6; Vaccinia inh Venus: -1.7

How did C[C@@H]1CN([C@@H](C)CO)C(=O)c2cccc(NC(=O)NC3CCCCC3)c2O[C@@H]1CN(C)C(=O)Nc1ccccc1 do in these assays?
Vaccinia inh: -7.7; Vaccinia inh Venus: -13.4

Results for COc1ccc(NC(=O)N(C)C[C@H]2Oc3ccc(NS(=O)(=O)c4ccccc4)cc3CC(=O)N([C@@H](C)CO)C[C@H]2C)cc1 ?
Vaccinia inh: 12.1; Vaccinia inh Venus: 9.1

How did CNC[C@@H]1OCCCC[C@H](C)Oc2ccc(NC(=O)NC(C)C)cc2C(=O)N([C@H](C)CO)C[C@@H]1C do in these assays?
Vaccinia inh: 18.1; Vaccinia inh Venus: 8.5

What do the screens show for `COCC(=O)Nc1ccc2c(c1)[C@H]1C[C@@H](CC(=O)NCCc3ccccc3)O[C@H](CO)[C@H]1O2`?
Vaccinia inh: 1.2; Vaccinia inh Venus: 1.7

Results for OC[C@H]1[C@H](c2ccc(-c3ccc(F)cc3)cc2)[C@@H]2CN(CCC(F)(F)F)CCCCN12 ?
Vaccinia inh: inconclusive

How did Cc1nn(C)cc1NC(=O)C[C@@H]1CC[C@@H]2[C@@H](COc3ccc(NC(=O)Nc4cccc(Cl)c4)cc3C(=O)N2C)O1 do in these assays?
Vaccinia inh: 0.6; Vaccinia inh Venus: -4.9

What do the screens show for `C[C@H](CO)N1C[C@H](C)[C@@H](CN(C)C)OCCCC[C@H](C)Oc2ccc(NC(=O)c3ccncc3)cc2C1=O`?
Vaccinia inh: 18.6; Vaccinia inh Venus: 10.5

How did CC(C)NC(=O)Nc1ccc2c(c1)CC(=O)N([C@@H](C)CO)C[C@H](C)[C@H](CN(C)S(=O)(=O)c1ccc(Cl)cc1)O2 do in these assays?
Vaccinia inh: 2.1; Vaccinia inh Venus: 2.7

What do the screens show for `COc1ccc(-c2ccc([C@@H]3[C@H](C#N)N(C(=O)c4cccc(F)c4)[C@H]3CO)cc2)cc1`?
Vaccinia inh: inconclusive

What do the screens show for `CNC[C@H]1OCCCC[C@@H](C)Oc2ccc(NS(=O)(=O)c3cccs3)cc2C(=O)N([C@H](C)CO)C[C@@H]1C`?
Vaccinia inh: 18.0; Vaccinia inh Venus: 7.3

What do the screens show for `O=C(NC1CCCCC1)N[C@H]1CC[C@@H](CC(=O)N2CCOCC2)O[C@H]1CO`?
Vaccinia inh: 3.6; Vaccinia inh Venus: -2.6

How did CC(C)C#Cc1ccc2c(c1)O[C@@H](CN(C)Cc1cccnc1)[C@H](C)CN([C@@H](C)CO)S2(=O)=O do in these assays?
Vaccinia inh: inconclusive

Results for COc1ccc2c3c([nH]c2c1)[C@@H](CO)N(C(=O)Nc1ccc(F)cc1)CC31CN(C(=O)Cc2ccncc2)C1 ?
Vaccinia inh: -4.2; Vaccinia inh Venus: -12.3

How did CNC[C@@H]1Oc2ncc(-c3ccccc3F)cc2C(=O)N([C@H](C)CO)C[C@@H]1C do in these assays?
Vaccinia inh: -17.2; Vaccinia inh Venus: -9.0

What do the screens show for `C[C@@H]1CN([C@@H](C)CO)C(=O)Cc2cc(NC(=O)Nc3ccc(C(F)(F)F)cc3)ccc2O[C@@H]1CN(C)Cc1ccc(C(F)(F)F)cc1`?
Vaccinia inh: inconclusive

How did O=C(NCC[C@H]1CC[C@@H](NC(=O)Nc2cc(F)ccc2F)[C@H](CO)O1)Nc1ccc(Cl)cc1 do in these assays?
Vaccinia inh: 10.7; Vaccinia inh Venus: 12.4

How did C[C@@H]1CN([C@@H](C)CO)C(=O)c2cc(NS(=O)(=O)c3ccccc3)ccc2O[C@@H](C)CCCCO[C@H]1CN(C)C(=O)C1CCCCC1 do in these assays?
Vaccinia inh: inconclusive

Results for C[C@H](CO)N1C[C@H](C)[C@H](CN(C)Cc2ccc(C(F)(F)F)cc2)Oc2ccc(NC(=O)C3CCCCC3)cc2CC1=O ?
Vaccinia inh: -13.4; Vaccinia inh Venus: -7.4

How did CN(C)C(=O)c1ccc(-c2ccc([C@H]3[C@H](C#N)N(C(=O)Cc4ccccn4)[C@H]3CO)cc2)cc1 do in these assays?
Vaccinia inh: 9.9; Vaccinia inh Venus: -3.3

Results for C[C@@H]1CN([C@H](C)CO)C(=O)c2cccc(NC(=O)Nc3ccc(C(F)(F)F)cc3)c2O[C@@H]1CN(C)C(=O)Nc1ccccc1 ?
Vaccinia inh: inconclusive

Results for COc1ccccc1C#Cc1ccc2c(c1)[C@H]1[C@H](CCN1C(=O)c1ccc(F)cc1)[C@@H](CO)N2 ?
Vaccinia inh: inconclusive

What do the screens show for `O=C(C[C@@H]1CC[C@@H]2[C@H](COC[C@@H](O)CN2C(=O)c2ccncc2)O1)NCc1cccc(F)c1`?
Vaccinia inh: 8.1; Vaccinia inh Venus: 6.5

Results for C[C@H]1CN([C@@H](C)CO)C(=O)c2cc(NS(=O)(=O)c3ccc(Cl)cc3)ccc2O[C@@H]1CN(C)S(=O)(=O)c1ccc(Cl)cc1 ?
Vaccinia inh: -20.9; Vaccinia inh Venus: -15.1

Results for Cc1ccc(S(=O)(=O)N(C)C[C@H]2OCCCC[C@H](C)Oc3ccc(NS(=O)(=O)c4ccccc4)cc3C(=O)N([C@@H](C)CO)C[C@H]2C)cc1 ?
Vaccinia inh: -15.8; Vaccinia inh Venus: -11.7

What do the screens show for `O=C(C[C@H]1CC[C@H]2[C@@H](COC[C@@H](O)CN2S(=O)(=O)c2ccccc2)O1)N[C@H]1CCN(Cc2ccccc2)C1`?
Vaccinia inh: -5.4; Vaccinia inh Venus: -0.1

How did O=C(Cc1ccccn1)N1CCCCN2[C@@H](CO)[C@@H](c3ccc(-c4ccccc4)cc3)[C@@H]2C1 do in these assays?
Vaccinia inh: -20.4; Vaccinia inh Venus: -16.4

What do the screens show for `CC(C)CC#Cc1ccc2c(c1)O[C@H](CN(C)C(=O)c1ccccc1F)[C@H](C)CN([C@@H](C)CO)S2(=O)=O`?
Vaccinia inh: inconclusive

How did O=C(Nc1cccc(Cl)c1)N[C@@H]1CC[C@@H](CCNC(=O)C2CC2)O[C@H]1CO do in these assays?
Vaccinia inh: 9.2; Vaccinia inh Venus: 7.3

What do the screens show for `C[C@@H]1CN([C@@H](C)CO)C(=O)c2ccccc2-c2ccccc2CO[C@@H]1CN(C)C(=O)[C@@H](Cc1ccccc1)N(C)C`?
Vaccinia inh: -8.4; Vaccinia inh Venus: -12.6

How did Cc1ccccc1S(=O)(=O)N1CC(=O)N2[C@H](C1)[C@@H](c1ccc(C#CC3CC3)cc1)[C@@H]2CO do in these assays?
Vaccinia inh: 20.4; Vaccinia inh Venus: 6.6

How did COc1ccc(S(=O)(=O)Nc2ccc3c(c2)C(=O)N([C@@H](C)CO)C[C@H](C)[C@@H](CN(C)Cc2ccc4c(c2)OCO4)OCCCC[C@@H](C)O3)cc1 do in these assays?
Vaccinia inh: inconclusive

How did Cc1ccc(S(=O)(=O)N2C[C@@H](O)COC[C@@H]3O[C@@H](CC(=O)NCc4ccc5c(c4)OCO5)CC[C@H]32)cc1 do in these assays?
Vaccinia inh: -21.8; Vaccinia inh Venus: -9.1

Results for C[C@@H]1CCCCO[C@H](CN(C)S(=O)(=O)c2cn(C)cn2)[C@H](C)CN([C@@H](C)CO)C(=O)c2cc(NC(=O)C3CCCCC3)ccc2O1 ?
Vaccinia inh: 13.7; Vaccinia inh Venus: 14.3

How did CCCNC(=O)N1[C@H](C#N)[C@H](c2ccc(C#Cc3ccc(F)cc3)cc2)[C@@H]1CO do in these assays?
Vaccinia inh: inconclusive

How did CC(C)c1cn([C@H]2C[C@@H]3O[C@H](CO)CC[C@@H]3O[C@@H]2CCc2ccc(C#CC3CCCCC3)cc2)nn1 do in these assays?
Vaccinia inh: -22.7; Vaccinia inh Venus: -21.7

Results for COCC#Cc1ccc([C@@H]2[C@H]3CN(C(=O)C4CCC4)CC(=O)N3[C@H]2CO)cc1 ?
Vaccinia inh: -0.9; Vaccinia inh Venus: 5.0

Results for CN(C)CCCNC(=O)C[C@@H]1CC[C@@H]2[C@H](COC[C@H](O)CN2CC2CC2)O1 ?
Vaccinia inh: 5.1; Vaccinia inh Venus: 10.9

How did C[C@H]1CN([C@@H](C)CO)C(=O)Cc2cc(NC(=O)CCN3CCOCC3)ccc2O[C@@H]1CN(C)S(=O)(=O)c1ccc(F)cc1 do in these assays?
Vaccinia inh: 9.2; Vaccinia inh Venus: 14.3

How did C[C@@H]1CN([C@@H](C)CO)C(=O)c2cccc(NC(=O)Nc3ccccc3)c2O[C@@H]1CN(C)Cc1ccc(C(=O)Nc2ccccc2N)cc1 do in these assays?
Vaccinia inh: -18.0; Vaccinia inh Venus: -11.6

What do the screens show for `C[C@@H]1CN([C@H](C)CO)C(=O)c2cccc(NC(=O)NC3CCCCC3)c2O[C@H]1CN(C)S(=O)(=O)c1cccs1`?
Vaccinia inh: 2.2; Vaccinia inh Venus: 3.9

How did CO[C@@H]1CN(C)C(=O)c2cc(NC(=O)NC(C)C)ccc2OC[C@H](C)N(C(=O)CC2CC2)C[C@@H]1C do in these assays?
Vaccinia inh: 6.4; Vaccinia inh Venus: 13.6

What do the screens show for `C[C@@H](O)C#Cc1ccc([C@H]2[C@@H](CO)N3CCCCN(CC4CCOCC4)C[C@@H]23)cc1`?
Vaccinia inh: 21.5; Vaccinia inh Venus: 4.7

What do the screens show for `COc1cccc(-c2ccc(C3[C@H]4CNC[C@@H]3N4Cc3ccc4c(c3)OCO4)cc2)c1` (stereo partly specified)?
Vaccinia inh: inconclusive; Vaccinia inh Venus: -20.7

How did COc1ccc(NC(=O)N(C)C[C@H]2Oc3ncc(C#CCC(C)C)cc3C(=O)N([C@H](C)CO)C[C@H]2C)cc1 do in these assays?
Vaccinia inh: -14.7; Vaccinia inh Venus: -13.7

Results for C[C@H](CO)N1C[C@H](C)[C@H](CN(C)Cc2ccc(-c3ccccc3)cc2)Oc2c(NS(=O)(=O)c3ccc(Cl)cc3)cccc2C1=O ?
Vaccinia inh: -9.9; Vaccinia inh Venus: -8.0

How did C[C@@H]1CN([C@@H](C)CO)C(=O)c2cc(-c3ccccc3F)cnc2O[C@@H]1CN(C)C(=O)NC1CCCC1 do in these assays?
Vaccinia inh: 11.9; Vaccinia inh Venus: 11.0

What do the screens show for `O=C(Nc1ccc(F)cc1)N1CCCCN2[C@H](CO)[C@H](c3ccc(-c4cccc(F)c4)cc3)[C@H]2C1`?
Vaccinia inh: inconclusive

How did CCC(=O)N(C)C[C@@H]1Oc2cc(-c3ccc(C)cc3)ccc2S(=O)(=O)N([C@H](C)CO)C[C@@H]1C do in these assays?
Vaccinia inh: inconclusive

This is a subset (hit frequency here may not be typical).
